From PubChem
GIV Gai3 FP: GIV-Galpha-i interaction inhibition | P08753 | Galpha-i3/FITC-GIV peptide fluorescence polarization, 90 min; hits give low values; scaled: aluminum fluoride 0%, vehicle 100% | percent of control (FP), % (test concentration not listed) | 210,000 tested, 0.42% active | AID 1224905;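 active = replicate mean at 85% of control or lower, very high polarization wells dropped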;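 note: wells of about 15 µL received 100 nL stock; the first replicate is given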
Target sequence (P08753 whole entry, looked up): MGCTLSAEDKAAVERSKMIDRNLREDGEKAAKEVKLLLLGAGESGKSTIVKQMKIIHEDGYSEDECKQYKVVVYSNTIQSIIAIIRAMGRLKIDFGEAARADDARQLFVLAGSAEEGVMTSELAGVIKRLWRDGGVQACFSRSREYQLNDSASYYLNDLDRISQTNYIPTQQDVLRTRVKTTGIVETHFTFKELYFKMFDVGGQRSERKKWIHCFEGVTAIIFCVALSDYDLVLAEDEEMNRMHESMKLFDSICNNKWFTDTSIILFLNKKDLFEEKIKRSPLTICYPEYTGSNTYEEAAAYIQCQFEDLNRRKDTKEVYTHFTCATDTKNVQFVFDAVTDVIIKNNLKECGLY
Numbers without * were called inactive. These rows are one share of the data; the hit share may differ from the screen's.

SMILES	GIV Gai3 FP
O=C(Nc1ccc(-c2ccc3ccccc3n2)cc1)C1CCCCC1	99
CC1=C(C(=O)OCc2ccccc2)C(c2ccncc2)C(C#N)=C(N)O1 (stereo not given)	111
CC1CCN(C(=O)CCS(=O)(=O)c2ccc3c(c2)NC(=O)CCS3)CC1	101
CC(C)NS(=O)(=O)c1cc(-c2noc(C3CCC3)n2)cs1	97
COc1ccc(CCN2C(=O)/C(=C/c3c(N4CCCCC4)nc4ccccn4c3=O)SC2=S)cc1OC	137
O=S(=O)(c1ccc(-c2nnc(C3CCC3)o2)o1)N1CCCC1	109
S=c1nc2c(n[nH]1)c1ccccc1n2CCc1ccccc1	103
O=C(c1cc2nc(-c3ccc4c(c3)OCO4)cc(C(F)(F)F)n2n1)N1CCN(c2ccccc2)CC1	109
COc1ccc(N2C(=O)/C(=C/c3ccc(-c4cc(Cl)ccc4Cl)o3)C=C2c2ccccc2)cc1	104
Cc1ccc(N2C(=O)c3sc4nc5c(c(=O)n4c3C2=O)CCC5)cc1	117
Cc1ccc(S(=O)(=O)NC2CCN(C(=O)CN3C(=O)COc4ccc(Cl)cc43)CC2)cc1	101
CCOC(=O)C1=C(N)n2c(s/c(=C\c3cccc(OC)c3)c2=O)=C(C#N)C1c1cccc(OC)c1 (stereo not given)	113
O=C(O)c1cccnc1SCc1ccccn1	100
N#CC1=C(SCC(=O)Nc2ccc(Br)cc2)NC(=O)C(C#N)C1c1ccccc1Cl (stereo not given)	111
CC(C)CNC(=O)c1ccc(N2CC3CC(C2)c2cccc(=O)n2C3)c(NC(=O)c2cc3ccccc3oc2=O)c1 (stereo not given)	113
CCOC(=O)c1sc2nc(CC(=O)OC)nc(NC3CCCCCC3)c2c1C	104
O=C(CCc1nc(CSc2nc3ccccc3[nH]2)no1)Nc1nncs1	109
CCCn1c(=O)c(C(=O)Nn2c(CC)nc3ccccc3c2=O)c(O)c2ccccc21	106
CC1CCN(S(=O)(=O)c2ccc3c(c2)C(C)(C)CN3CC(=O)N2CCCC2)CC1	114
O=[N+]([O-])c1ccccc1S(=O)(=O)NCCSc1nc2ccccc2s1	110
O=c1n(Cc2ccccc2F)nc2c(S(=O)(=O)N3CCN(c4ccc(F)cc4)CC3)cccn12	105
Cc1ccc(-c2noc(C(=O)N3CCCC3)n2)cc1S(=O)(=O)N1CCN(c2ccccn2)CC1	100
CCN1CCN(CCNC(=O)c2ccc3c(c2)NC(=O)c2ccccc2N3)CC1	116
CC1CCCCC12NCCN=C2NCc1cccc(F)c1 (stereo not given)	99
Cc1ccc(CN2CCN(C3CCN(C(=O)NC(C)C)CC3)C(=O)C2=O)cc1	106
CCOC(=O)c1[nH]c(C)c(CN(Cc2ccc(C)cc2)S(=O)(=O)c2ccc(CC)cc2)c1C	97
CCSCCOC(=O)C1=C(C)NC2=C(C(=O)CC(C)(C)C2)C1c1ccc(C(=O)OC)cc1 (stereo not given)	106
COc1ccc(-c2[nH]ncc2CN2CCCC2c2c(C)noc2C)cc1 (stereo not given)	122
O=[N+]([O-])c1cccc2c1OC1(N3CCOCC3)CCCCC1=C2 (stereo not given)	105
CCCn1c(=O)c(N2CCC(NC(=O)Nc3ccccc3)CC2)nc2ccccc21	100
CNc1nc(-c2ccccc2)[n+](-c2ccc(C)cc2)s1	102
COc1ccc(C2=NN(C(=O)CSc3nnc(CNC(=O)c4ccccc4OC)n3C)C(c3ccc(C)cc3)C2)cc1 (stereo not given)	109
O=C(c1ccc2c(=O)n(Cc3ccc4c(c3)OCO4)c(=S)[nH]c2c1)N1CCN(Cc2ccc3c(c2)OCO3)CC1	111
CCOC(=O)c1ccc(-n2sc3c(c2=S)-c2cc(C)ccc2N(C)C3(C)C)cc1	101
CC1=NN(c2cc(Cl)ccc2Cl)C(=O)/C1=C\c1cccn1-c1ccc(S(N)(=O)=O)cc1	111
Cc1sc(-c2cc(C(F)(F)F)on2)cc1S(=O)(=O)Nc1cccc(Cl)c1	97
Cc1nc2ccccc2c(=O)n1-c1ccc(NC(=O)C(C)(C)C)cc1	100
O=C(c1cccc(CN2C(=O)C3CCCN3C(=O)c3ccccc32)c1)N1CCCC1 (stereo not given)	104
COc1ccc(OC)c(Nc2cc(C(=O)NC(C)c3ccc4c(c3)OCCO4)c3ccccc3n2)c1 (stereo not given)	112
c1ccc(-c2nc(-c3ccc(-c4csc(C5CC5)n4)cc3)no2)cc1	99
O=S(=O)(Nc1ccccc1-c1ccc2ccccc2n1)c1ccc(F)cc1	102
C=CCn1c(SCC(=O)c2ccc(Br)cc2)nc2cc(C(=O)NCC3CCCO3)ccc2c1=O (stereo not given)	112
O=C(NCCN1CCN(Cc2ccccc2)CC1)C1CCN(c2nc3ccccc3[nH]2)CC1	101
CCc1onc(C)c1C1CCCN1S(=O)(=O)CC (stereo not given)	100
COc1ccc(S(=O)(=O)NCCSc2nc3ccccc3s2)cc1OC	107
CN1CCN(C(=O)c2cn(-c3cc(N4CCSCC4)ncn3)cn2)CC1	105
Cc1ccc(COc2nc3ccccc3n3c(C)nnc23)cc1	99
CCOC(=O)C1=CN(Cc2ccc(OC)cc2)C=C(C(=O)OCC)C1c1ccc(OC)c(OC)c1OC	108
CCOc1ccc(NC(=O)c2ccc(F)c(S(=O)(=O)N3CCN(c4ccccc4Cl)CC3)c2)cc1	105
CN(C)S(=O)(=O)c1ccc2c(c1)cc(C(=O)NCc1ccccn1)n2Cc1ccccc1	103
CCCCC(C(=O)O)N1C(=O)C2C3c4ccccc4C(c4ccccc43)C2C1=O (stereo not given)	117
CCOC(=O)C1CCCN(c2ncc(S(=O)(=O)c3ccc(C)cc3)c(N)n2)C1 (stereo not given)	109
O=C1N(Cc2cccc(F)c2)c2ccccc2S(=O)(=O)N1c1ccc(Cl)cc1	103
CC1CN(S(=O)(=O)c2ccc3c(c2)C(=O)c2cc(S(=O)(=O)N4CC(C)OC(C)C4)ccc2-3)CC(C)O1 (stereo not given)	107
Cn1c(=O)c2c3c(sc2n2c(SCC(=O)c4ccc(Br)cc4)nnc12)CCC3	107
CC(C)NC(=O)C1CC(=O)N(C2CCCCC2)C1 (stereo not given)	100
O=C(CN1C(=O)CC(c2ccc(F)cc2)=Nc2cccnc21)NCCc1ccc(Cl)cc1	101
Cc1cc2c(cc1C)CSC(c1cc(Br)ccc1O)SC2	107
COC(=O)c1c(-c2ccc(Cl)cc2)noc1N1CCN(Cc2ccc3c(c2)OCO3)CC1	111
COc1cc(NC(=O)N2CCN(Cc3cc(=O)n4nc(-c5ccc(F)cc5)sc4n3)CC2)cc(OC)c1	101
The listing continues.
SMILES	GIV Gai3 FP
CCCS(=O)(=O)c1nc2ccc(NS(=O)(=O)c3ccc(OC)c(OC)c3)cc2s1	102
CC(=O)CN1C2=NCCN2c2ccccc21	116
Cc1nn(C)c(C)c1CNC(=O)CS(=O)Cc1cnn(-c2ccccc2)c1-n1cccc1 (stereo not given)	100
Cc1c(C(=O)Nc2ccc(F)c(Cl)c2)sc2nc[nH]c(=O)c12	97
CCOC(=O)c1nc2ccccc2nc1C	98
COc1ccc(CCNC(=O)CCCn2c(SCC(=O)c3ccccc3)nc3ccccc3c2=O)cc1OC	117
Cc1cc(C)c(S(=O)(=O)N2CCC[C@@H]2C(=O)NCCc2csc(C)n2)c(C)c1	102
COc1ccc2oc(C(=O)c3ccc(Cl)cc3)c(N)c2c1	108
Cc1cc(C)cc(NC(=O)CCc2nc(CSc3nc4ccccc4s3)no2)c1	106
Cc1ccc(N2C(=O)/C(=C/c3ccc(-c4cc(Cl)ccc4Cl)o3)C=C2c2ccccc2)cc1[N+](=O)[O-]	116
COc1cccc(Cc2nc(-c3ccc4c(c3)Sc3ccccc3C(=O)N4C)no2)c1	93
CC1CCN(c2nc3ccccn3c(=O)c2/C=C2/SC(=S)N(CC3CCCO3)C2=O)CC1 (stereo not given)	160
Cn1c(CN2CCN(C(=O)NC3CCCC3)CC2)nc2cc(C(=O)N3CCCC3)ccc21	103
Cc1ccc(C)c(-c2csc(-c3cc4ccccc4oc3=O)n2)c1	118
Cc1cccc(C2OC3(C(=O)c4ccccc4C3=O)C3C(=O)N(c4cccc5ccccc45)C(=O)C23)c1 (stereo not given)	121
CCOC(=O)N1CCC(NC(=O)c2cc3c(s2)CN(C2CC2)C3)CC1	99
CC1(C)Cc2ccccc2C2=CC(=O)C(=O)N21	111
Cc1ccc(S(=O)(=O)Nc2cc3c4c(oc3c3ccccc23)CCC(C(C)(C)C)C4)cc1 (stereo not given)	110
CN1CC(=O)N(CC(=O)NC2CCCCC2)c2ccccc2C1=O	101
CCOC(=O)c1ccc(NC(=O)CSc2nc3ccccc3c(=O)n2CCCC(=O)NCc2ccco2)cc1	106
O=C(NCCC1=CCCCC1)c1cccc(Nc2ncc(-c3cccc(F)c3)cn2)c1	104
Cc1ccc(OCCSc2nnc(-c3ccc4c(c3)OCCCO4)n2C)cc1C	108
CCN(CC)CCC(=O)N1c2ccccc2CCc2ccc(NC(=O)C(C)C)cc21	109
CC1=C(C(=O)Nc2ccccc2C)C(c2ccccc2)NC(=O)N1 (stereo not given)	106

15 of these compounds, reformatted.
SMILES | GIV Gai3 FP
Cc1ccc(N2C(=O)/C(=C/c3ccc(-c4cc(Cl)ccc4Cl)o3)C=C2c2ccccc2)cc1[N+](=O)[O-] | 116
COc1cccc(Cc2nc(-c3ccc4c(c3)Sc3ccccc3C(=O)N4C)no2)c1 | 93
CC1CCN(c2nc3ccccn3c(=O)c2/C=C2/SC(=S)N(CC3CCCO3)C2=O)CC1 (stereo not given) | 160
Cn1c(CN2CCN(C(=O)NC3CCCC3)CC2)nc2cc(C(=O)N3CCCC3)ccc21 | 103
Cc1ccc(C)c(-c2csc(-c3cc4ccccc4oc3=O)n2)c1 | 118
Cc1cccc(C2OC3(C(=O)c4ccccc4C3=O)C3C(=O)N(c4cccc5ccccc45)C(=O)C23)c1 (stereo not given) | 121
CCOC(=O)N1CCC(NC(=O)c2cc3c(s2)CN(C2CC2)C3)CC1 | 99
CC1(C)Cc2ccccc2C2=CC(=O)C(=O)N21 | 111
Cc1ccc(S(=O)(=O)Nc2cc3c4c(oc3c3ccccc23)CCC(C(C)(C)C)C4)cc1 (stereo not given) | 110
CN1CC(=O)N(CC(=O)NC2CCCCC2)c2ccccc2C1=O | 101
CCOC(=O)c1ccc(NC(=O)CSc2nc3ccccc3c(=O)n2CCCC(=O)NCc2ccco2)cc1 | 106
O=C(NCCC1=CCCCC1)c1cccc(Nc2ncc(-c3cccc(F)c3)cn2)c1 | 104
Cc1ccc(OCCSc2nnc(-c3ccc4c(c3)OCCCO4)n2C)cc1C | 108
CCN(CC)CCC(=O)N1c2ccccc2CCc2ccc(NC(=O)C(C)C)cc21 | 109
CC1=C(C(=O)Nc2ccccc2C)C(c2ccccc2)NC(=O)N1 (stereo not given) | 106

Remaining list, next part:
SMILES	GIV Gai3 FP
CCOC(=O)C1=c2s/c(=C/c3cccc(F)c3)c(=O)n2C(N)=C(C#N)C1c1cccc(F)c1 (stereo not given)	105
Cc1cc(C)cc(-n2ccn3c(SCc4cc(C)ccc4C)nnc3c2=O)c1	111
COc1ccc(CN2C(=O)CC(C(=O)Nc3ccc(F)cc3)SC2=Nc2ccccc2)cc1 (stereo not given)	101
Cc1noc(C)c1C1CCCN1C(=O)c1c(Br)cnn1C (stereo not given)	98
O=C(c1ccc2ccnc(N3CCN(c4ccccc4)CC3)c2c1)N1CCN(C2CCCCC2)CC1	112
CCOc1ccc(NC(=O)Cn2c(SCC)nc3ccccc32)cc1	98
O=C(Nc1ccc2c(c1)OCO2)c1nnc(C2CCN(C(=O)C3CCCC3)CC2)s1	104
N#CC(=C1CCCC1)c1nc(-c2ccc(Br)cc2)cs1	118
CCCCn1c(CNC(=O)c2ccco2)nnc1SC(C)C(=O)Nc1sc2c(c1C(=O)OCC)CCCC2 (stereo not given)	103
Cc1c(C(c2cccc(I)c2)c2c(C)n(C)n(-c3ccccc3)c2=O)c(=O)n(-c2ccccc2)n1C	104
C=CCN1CCN(c2nc3cc(C(=O)OC)ccc3c(=O)n2-c2ccc(OC)c(OC)c2)CC1	97
CCOC(=O)CC(=O)CSc1nc(N)c(C#N)c(-c2ccc(F)cc2)c1C#N	115
CCOc1ccc(N(C)S(=O)(=O)c2ccc3[nH]cc(C(=O)NCCc4ccccc4)c(=O)c3c2)cc1	103
Cc1cccc(C2(c3cccc(C)c3)CC2C(=O)Nc2ccccc2F)c1 (stereo not given)	103
CCCn1c(=O)c2sc(N3CCCCC3)nc2n(CC(=O)NCCC2=CCCCC2)c1=O	98
O=c1n(Cc2nc(-c3ccc(F)c(Br)c3)no2)nc2ccc(-c3ccccc3)nn12	108
O=C(Cn1c(=O)c(=O)n(Cc2ccncc2)c2ncccc21)NCc1ccccn1	107
C=CCOc1ccc(C=Nc2c(C)n(C)n(-c3ccccc3)c2=O)cc1OC	114
CCOc1ccc(CNC(=O)c2ccc(Oc3ccnc(-c4ccc(F)cc4)n3)cc2)cc1OCC	103
Fc1ccc(-c2nc(-c3ccc(-c4csc(C5CC5)n4)cc3)no2)cc1	101
O=C1CC(c2c(F)cccc2Cl)c2cc(Br)c3ccccc3c2N1 (stereo not given)	109
Cc1ccc(-n2nc3c(c2NC(=O)c2cc4ccccc4oc2=O)CSC3)cc1	108
COC(=O)C1=CN(Cc2ccc(OC)c(OC)c2)C=C(C(=O)OC)C1c1ccc(OCc2ccccc2)cc1	100
CCOc1ccc(-n2nnnc2CNC(=O)Nc2ccc(F)cc2)cc1	100
CCC(=O)Nc1cccnc1-c1ccc(C(=O)Nc2cccc(Cl)c2)cc1	105
Cc1nn(-c2ccc3nnc(C)n3n2)c2c1C(c1ccccc1OCc1ccc(Cl)cc1)CC(=O)N2 (stereo not given)	105
CC(=O)C1=C(C)OC(N)=C(C#N)C1c1ccsc1 (stereo not given)	106
Cc1nnc2ccc(NC3CC3)nn12	103
Fc1cccc(CNC2=NCCNC23CCC(c2ccccc2)CC3)c1 (stereo not given)	106
O=C(CSc1nc2c(c(=O)n1-c1ccc(Br)cc1)SCC2)N1CCCc2ccccc21	105
CN(C)S(=O)(=O)c1ccc(C(=O)N2CCN(c3ncnc4c3nnn4-c3ccccc3)CC2)cc1	102
CCc1c(C)nc2ncnn2c1NC1CC1	100
CCCS(=O)(=O)c1nc2ccc(NS(=O)(=O)c3ccccc3)cc2s1	104
Cc1ccc(C)c(-c2nc3ccccc3nc2-c2ccccc2)c1	113
CC(=O)Nc1c(C)nn(-c2ccccc2)c1N1CCC(C(=O)N2CCCCC2C)CC1 (stereo not given)	104
